# HCMV NEC inh: cytomegalovirus nuclear egress complex inhibition; HTRF UL50-UL53 interaction, normalized percent inhibition; 190,000 compounds, 0.15% hits; AID 1918969; inhibition, % (no concentration beside the values);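 active = both replicates at 50% or more, plus weaker picks with an unusually low signal ratio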;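 also: stock transfer was 100 nL into about 20 µL; 0% = negative control wells and 100% = wells with untagged competitor protein; inactives centre near -12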
# GIV-Gai inh: GIV-Galpha-i interaction inhibition. P08753. 210,000 compounds, 0.42% hits. percent of control (FP), % (test concentration not listed). Galpha-i3/FITC-GIV peptide fluorescence polarization, 90 min; hits give low values; scaled: aluminum fluoride 0%, vehicle 100%;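 active = replicate mean at 85% of control or lower, very high polarization wells dropped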;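 also: wells of about 15 µL received 100 nL stock; the first replicate is given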
# Target sequence (P08753 whole entry, looked up): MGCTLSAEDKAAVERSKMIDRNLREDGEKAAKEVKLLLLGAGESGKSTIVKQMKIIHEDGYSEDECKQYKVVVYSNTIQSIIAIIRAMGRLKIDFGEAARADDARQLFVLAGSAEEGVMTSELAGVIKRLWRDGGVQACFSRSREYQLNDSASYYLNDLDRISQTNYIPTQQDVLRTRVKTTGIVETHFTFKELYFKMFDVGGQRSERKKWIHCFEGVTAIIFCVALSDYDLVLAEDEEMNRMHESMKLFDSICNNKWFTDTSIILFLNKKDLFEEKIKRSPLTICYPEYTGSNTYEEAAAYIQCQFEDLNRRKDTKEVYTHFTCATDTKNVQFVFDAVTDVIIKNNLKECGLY
# Sa growth 42C: S. aureus growth inhibition. S. aureus RN4220 growth, OD600, 20 h, 42 °C; hits give low values. relative growth, % (no concentration beside the values). 170,000 compounds, 0.53% hits;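 active = growth at 42 °C up to 50% and 20 or more points under that at 30 °C, or under 10% at both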;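 also: 300 nL library stock went into each well; scaled to the means of positive and negative controls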
# Sa growth 42C second temp: recorded beside Sa growth 42C, whose call it bears; relative growth, %; measured here: growth at 30 °C;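 optical density after 20 h as mean of two plates; 100% = untreated growth and lower means inhibition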
# Numbers without * were called inactive; . = not tested or not shown; & = joins results of further samples.
nr	Molecule	Sa growth 42C second temp	HCMV NEC inh	Sa growth 42C	GIV-Gai inh
1	Cc1cc(-c2nnco2)c(C)n1-c1ccccc1	81.8	-23.5	94.2	.
2	OC1CNc2c(ccc3ccccc23)C1 (stereo unspecified)	97.5	-57.1	91.9	.
3	CC(C)(C)C(=O)COC(=O)c1ccc2c(c1)OCCO2	91.6	-35.0	100.7	.
4	O=c1c2c(ncn2C2CCCC2)n(Cc2ccccc2)c(=O)n1Cc1ccccc1	90.9	-21.2	104.7	.
5	O=C(COC(=O)C1CCN(c2ccc(C(F)(F)F)cn2)CC1)NCc1ccccc1	109.5	20.5	108.9	.
6	Cc1c(Cl)cn2c(=O)cc(CN3CCN(c4ccccc4O)CC3)nc2c1Cl	93.3	2.5	93.6	.
7	Cc1noc(C)c1NC(=O)NCCOc1ccccc1	90.6	-25.3	97.5	104.6
8	COc1ccc(-n2c(SCC(=O)Nc3nnc(C)s3)nc3c([nH]c4ccccc43)c2=O)cc1	90.5	.	134.9	101.4
9	CN1CCCN(c2cc(C(=O)O)c3cc(NC(=O)c4ccc(Br)cc4)ccc3n2)CC1	.	-45.2	.	102.9
10	O=[N+]([O-])c1cc(-c2nc(-c3ccccc3)no2)ccc1NCC1CCCO1 (stereo unspecified)	88.7	-28.1	96.0	103.2
11	COc1ccc(NC(=O)CCc2nc3sc4c(c3c(=O)[nH]2)CCCCC4)cc1OC	.	0.9	.	106.1
12	Cc1cccc(-c2nc3nc(C)cc(NC(C)c4ccccc4)n3n2)c1 (stereo unspecified)	80.2	.	67.7	101.7
13	CCOC(=O)c1[nH]c(C)c(CCC(=O)N2CCN(c3ccc(Cl)cc3)CC2)c1C	81.8	.	86.1	101.7&109.5
14	COc1ccc(N2CCN(S(=O)(=O)c3ccc(C4CCCCC4)cc3)CC2)cc1	93.5	-5.8	88.7	103.8
15	COC(=O)C1=CN(Cc2ccc(F)cc2)C=C(C(=O)OC)C1c1ccc2c(c1)OCO2	82.0	-32.0	98.3	103.0
16	CCOC(=O)c1c(C)csc1NC(=O)CC#N	77.0	2.4	101.8	185.9
17	CCCCOC(=O)c1ccc(NC(=O)c2ccc3c(c2)CCN3S(=O)(=O)c2ccccc2)cc1	79.6	-33.6	93.3	105.7
18	CCOC(=O)c1cc(Oc2nc(C)nc3sc4c(c23)CCCC4)cc(C(=O)OCC)c1	89.1	.	112.0	101.2
19	CCOc1ccccc1C(=O)Nc1ccc2nc(N(CC)CC)cc(C)c2c1	90.7	-4.8	108.4	96.5
20	CCCCn1c(N)c(N(CCC(C)C)C(=O)c2ccccc2F)c(=O)[nH]c1=O	92.8	-4.9	104.0	.
21	CCCCCC1=C(O)c2ccccc2C(=O)C1=O	72.4	-175.2	124.8	95.8
22	O=C(CSc1nnc(NC2CC2)s1)N1CCCCC1	92.6	-21.9	72.8	.
23	O=C(CNC(=O)C1CCCCC1)NC1=NCCS1	90.6	-23.6	75.3	.
24	NS(=O)(=O)c1ccc(NNC(=O)CCc2ccccc2)cc1	84.6	-30.3	91.1	105.0
25	CCC(C(=O)NCc1ccc(OC)cc1)N1C(=O)CCCc2ccccc21 (stereo unspecified)	.	-5.5	.	118.2
26	COC(=O)C1CCN(C(c2ccc(F)cc2)c2ccc(F)cc2)CC1	83.2	-13.1	85.3	.
27	OC(Cn1nnc2ccccc21)c1ccccc1 (stereo unspecified)	85.6	-1.8	116.5	.
28	Cc1cccc(-n2cc(-c3cc4cc(Cl)ccc4oc3=O)[nH]c2=S)c1	91.9	.	124.7	133.0
29	COc1ccc(Oc2c(C(F)(F)F)oc3cc(O)ccc3c2=O)cc1	.	4.9	.	106.5
30	COC(=O)c1cc(NC(=O)Cn2nc(C)n3cccc3c2=O)cc(C(=O)OC)c1	90.8	-12.0	105.9	108.4
31	CC(=O)N1CCN(c2nc(-c3ccccc3)c3cc(C)ccc3n2)CC1	.	0.8	.	100.9
32	FC(F)(F)c1ccc(C2=NCCO2)cc1	86.2	-1.0	99.3	100.4
33	CCc1ccc(N2CCn3c2nc2c3c(=O)n(Cc3ccc(F)cc3)c(=O)n2C)cc1	93.6	.	94.7	99.8
34	COc1cc(OC)cc(C(=O)Nc2nc(-c3nnn(-c4ccc(F)c(Cl)c4)c3C)ns2)c1	81.9	.	99.9	103.8
35	Cc1ccc2c(c1)OC(C1CCCCC1)C(=O)N2 (stereo unspecified)	.	-1.2	.	106.6
36	C=CCn1c(SCc2ccc(C(=O)NCCO)cc2)nc2sc(C)c(C)c2c1=O	.	-23.8	.	104.1
37	N#Cc1ccc(-n2nnc3ccccc32)cc1C#N	87.7	0.9	92.1	.
38	N#Cc1ccc(NC(=O)C2Cc3ccccc3CN2S(=O)(=O)c2ccc(F)cc2)cc1 (stereo unspecified)	86.3	-0.4	107.3	103.6
39	CCCc1c(C)c2ccc(O)c(CN3CCN(c4ccc(F)cc4)CC3)c2oc1=O	90.2	7.0	113.4	103.7
40	Cc1cccc(N=Cc2c(Nc3cccc(C)c3)nc3ccccn3c2=O)c1	96.4	.	106.3	97.3
41	COc1ccc(OC)c(C2C(C(=O)OCCOc3ccccc3)=C(C)NC3=C2C(=O)CC(C)(C)C3)c1 (stereo unspecified)	.	-7.3	.	103.9
42	Cc1ccc(CNS(=O)(=O)c2ccc3c(c2)CCN3S(C)(=O)=O)cc1	97.2	.	112.6	107.6
43	CCOC(=O)c1ccccc1NC(=O)Cn1ncc2c1-c1cc(C)ccc1OC2	85.6	-27.0	97.3	100.1
44	CCNC(=S)N1C2CCCC1CC(NC(=O)C1CC1)C2 (stereo unspecified)	98.7	-7.1	105.4	102.8
45	COc1ccccc1NC(=O)CSc1nnc(-c2nonc2NC(C)=O)n1-c1ccccc1	80.6	-32.3	92.9	97.4
46	Cc1nc(-c2cccc(S(=O)(=O)N3CCC(C(=O)NCc4ccccc4)CC3)c2)no1	98.5	.	97.2	104.4
47	CCCN(C(=O)CCc1nc(-c2ccc(OC)cc2)no1)c1ccccc1F	78.7	-7.9	99.9	105.8
48	CC(C)(C)c1ccc(O)c(N)c1	96.5	.	88.7	108.1
49	Cc1ccc(C2C(S(C)(=O)=O)=C(O)C(=O)N2c2ccccc2)cc1 (stereo unspecified)	100.1	-1.0	76.9	108.2
50	CCC/C(O)=C1\C(=O)CC(C)(C)CC1=NCCc1ccc(OCC)c(OCC)c1	83.0	-4.1	103.2	.

# Next section.
nr	Molecule	Sa growth 42C second temp	HCMV NEC inh	Sa growth 42C	GIV-Gai inh
51	Cc1ccc(OCc2nc(C#N)c(NCCc3ccccc3)o2)cc1	83.5	2.4	96.2	99.7
52	Cc1ccc(C(=O)n2ncn(C)c2=S)cc1	90.2	-6.3	96.0	.
53	Cc1ccc(C(=O)NCCSc2c(C)[nH]c3ccccc23)cc1C	104.5	-16.1	107.1	104.7
54	Cc1ccc(C)n1-c1ccc(C(=O)NCC(=O)O)cc1	83.2	-42.5	91.6	.
55	CC(=O)OC[C@H]1OC[C@H](OC(C)=O)[C@@H](OC(C)=O)[C@H]1OC(C)=O	89.8	-12.4	89.6	101.3
56	Cn1cc(-c2cc3n(n2)CCC(=O)N3CCCC(=O)Nc2ccccc2F)c2ccccc21	105.1	.	117.5	109.9
57	COc1cc(C2c3c(oc4ccccc4c3=O)C(=O)N2c2nc(C)c(C)s2)ccc1O (stereo unspecified)	93.4	-2.4	83.6	100.0
58	CN(C(=O)c1ccccc1C(=O)O)C1CC(C)(C)NC(C)(C)C1	89.7	4.0	105.2	.
59	CCOc1cc(C=C2C(=O)NC(=O)NC2=O)cc(Cl)c1OC(=O)c1ccc(OC)cc1	.	49.1*	.	75.2*
60	O=C(CCC1N=C2c3ccccc3N=C(SCc3ccccc3F)N2C1=O)NCCc1ccccc1 (stereo unspecified)	93.2	.	78.2	94.9

# Reprinted from the entries so far, 15 compounds:
nr	Molecule	Sa growth 42C second temp	HCMV NEC inh	Sa growth 42C	GIV-Gai inh
46	Cc1nc(-c2cccc(S(=O)(=O)N3CCC(C(=O)NCc4ccccc4)CC3)c2)no1	98.5	.	97.2	104.4
47	CCCN(C(=O)CCc1nc(-c2ccc(OC)cc2)no1)c1ccccc1F	78.7	-7.9	99.9	105.8
48	CC(C)(C)c1ccc(O)c(N)c1	96.5	.	88.7	108.1
49	Cc1ccc(C2C(S(C)(=O)=O)=C(O)C(=O)N2c2ccccc2)cc1 (stereo unspecified)	100.1	-1.0	76.9	108.2
50	CCC/C(O)=C1\C(=O)CC(C)(C)CC1=NCCc1ccc(OCC)c(OCC)c1	83.0	-4.1	103.2	.
51	Cc1ccc(OCc2nc(C#N)c(NCCc3ccccc3)o2)cc1	83.5	2.4	96.2	99.7
52	Cc1ccc(C(=O)n2ncn(C)c2=S)cc1	90.2	-6.3	96.0	.
53	Cc1ccc(C(=O)NCCSc2c(C)[nH]c3ccccc23)cc1C	104.5	-16.1	107.1	104.7
54	Cc1ccc(C)n1-c1ccc(C(=O)NCC(=O)O)cc1	83.2	-42.5	91.6	.
55	CC(=O)OC[C@H]1OC[C@H](OC(C)=O)[C@@H](OC(C)=O)[C@H]1OC(C)=O	89.8	-12.4	89.6	101.3
56	Cn1cc(-c2cc3n(n2)CCC(=O)N3CCCC(=O)Nc2ccccc2F)c2ccccc21	105.1	.	117.5	109.9
57	COc1cc(C2c3c(oc4ccccc4c3=O)C(=O)N2c2nc(C)c(C)s2)ccc1O (stereo unspecified)	93.4	-2.4	83.6	100.0
58	CN(C(=O)c1ccccc1C(=O)O)C1CC(C)(C)NC(C)(C)C1	89.7	4.0	105.2	.
59	CCOc1cc(C=C2C(=O)NC(=O)NC2=O)cc(Cl)c1OC(=O)c1ccc(OC)cc1	.	49.1*	.	75.2*
60	O=C(CCC1N=C2c3ccccc3N=C(SCc3ccccc3F)N2C1=O)NCCc1ccccc1 (stereo unspecified)	93.2	.	78.2	94.9

# Continued:
nr	Molecule	Sa growth 42C second temp	HCMV NEC inh	Sa growth 42C	GIV-Gai inh
61	CCOC1(O)C(=O)c2ccccc2C(=O)C1(O)OCC (stereo unspecified)	82.0	97.2*	80.3	72.0*
62	Fc1cccc(-c2nnc3sc(-c4cc5ccccc5[nH]4)nn23)c1	.	4.5	.	106.4
63	Cc1ccc(-c2cc(-c3coc4ccc(Cl)cc4c3=O)c3c(n2)-c2ccccc2OC3)cc1	94.7	0.6	78.5	102.7
64	COc1ccc(C2=C(C)C(N3CCC(C(=O)N4CCC(C(N)=O)CC4)CC3)=NS2(=O)=O)cc1	.	-46.5	.	107.1
65	CCN1C(=O)C2Cc3cc(OC)c(OC)cc3CN2C1=S (stereo unspecified)	81.5	-25.3	73.2	111.0
66	Cn1c(=O)c(=O)n(C)c2ncccc21	86.2	-20.8	90.2	99.9
67	CC(Oc1ccc(-c2nnco2)cc1)C(=O)NC1(C#N)CCCCC1 (stereo unspecified)	94.1	-16.2	76.9	.
68	O=C(CCn1c(=O)c2cccn2c2cccnc21)NCc1ccccc1	87.1	.	85.6	95.3
69	CC1(C)CC(=O)C2=C(C1)Nc1[nH]n(-c3ccccc3)c(=O)c1C2c1cccs1 (stereo unspecified)	82.0	-37.7	95.4	99.7
70	Cc1ccc(NC(=O)c2nc(S(C)(=O)=O)ncc2N(Cc2ccco2)Cc2ccco2)cc1C	92.2	3.5	98.8	102.7
71	CCC(Sc1nc2cc(OC)c(OC)cc2c(=O)n1CCc1ccc(Cl)cc1)C(=O)NCCOC (stereo unspecified)	91.5	.	102.0	102.9
72	CC(C)(C)c1ccc(S(=O)(=O)CCSc2nc3ccccc3s2)cc1	84.9	.	93.8	99.7
73	Cc1nn(S(=O)(=O)c2ccc3c(c2)CCCC3)c(C)c1S(=O)(=O)N1CCCC(C)C1 (stereo unspecified)	.	-23.1	.	101.1
74	N#CC1(C#N)C(c2cccnc2)C(C(=O)c2ccccc2)N2c3ccccc3C=CC21 (stereo unspecified)	61.8	-51.1	84.6	.
75	COC(=O)c1cc(S(=O)(=O)N2CCCC2C(=O)N2CCc3ccccc32)cn1C (stereo unspecified)	.	-10.4	.	103.3
76	Cc1nn(C)c(Sc2ccc(Cl)cc2)c1C(N)=O	.	-1.9	.	104.3
77	O=C(Nc1ncc(Cc2cccc(C(F)(F)F)c2)s1)c1sc2ccccc2c1Cl	.	-18.8	.	100.4
78	COc1ccc(F)cc1C(=O)CSc1nc2c3ccccc3ncn2n1	90.3	-11.6	77.0	.
79	CCOc1ccc(NC(=O)NC2CCN(c3ncccn3)CC2)cc1	86.1	-11.1	90.3	97.7
80	CN(C)/C=N/c1sc2c(c1C#N)CC(C)(C)NC2(C)C	78.4	-22.6	86.7	100.8
81	COCCc1nn2c(=O)cc(COC(=O)c3ccccc3C)nc2s1	93.2	.	104.0	106.4
82	Cc1ccc(-c2nc3sc(CCNC(=O)c4ccc(Br)o4)c(C)n3n2)cc1	49.6	.	73.3	105.4
83	CCCOC(=O)C[n+]1cn(CC)c2ccccc21	88.5	-12.5	120.1	.
84	CCOC(=O)c1oc2ccc(Br)cc2c1CSc1nnc2ccccn12	90.2	-39.4	81.9	.

# Screening data deposited in PubChem by ICCB-Longwood Screening Facility, Harvard Medical School.
